Bioassay records from PubChem BioAssay.
NPYLR7 agonist – mosquito NPYLR7 agonism; HEK293T NPYLR7/Galpha15, GCaMP6s calcium fluorescence; activation, % at 10 µM; hit rate 0.15% among 270,000; AID 1259423; in the data active = activation above about 40%;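 note: 0% = vehicle and 100% = reference agonist at the receptor; some compounds past the cut are filed as inactive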
NPYLR7 agonist max-min – second read-out of NPYLR7 agonist, no call of its own (marks repeat the call); activation, %; measured here: Max-Min RFU normalised activation; some inactives read as strong as hits;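 span of the calcium signal over five minutes; 0% = vehicle and 100% = native peptide agonist; compound fluorescence can raise it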
The depositor's hits bear a star; & = joins results of further samples. A portion of the library; count on the stated rates, not on these rows.

SMILES | NPYLR7 agonist | NPYLR7 agonist max-min
Cc1onc(-c2c(Cl)cccc2Cl)c1C(=O)NC(c1ccc(S(C)(=O)=O)cc1)c1cccc(N(C)C)c1 (configuration not stated) | -1 | -10
CC1CN(C)CCN1C(=O)c1cnc(-c2cnccn2)s1 (configuration not stated) | 8 | 5
CCOC(=O)c1ccc(NC(=O)c2cn(C)c3c(=O)n(-c4ccc(Cl)cc4)c(=O)[nH]c23)cc1 | -1 | -4
Cc1nc(-c2cccs2)sc1C(=O)NCC1CC1 | -24 | -26
CN(C)CCN(C(=O)CCCS(=O)(=O)c1ccc(Cl)cc1)c1nc2ccccc2s1 | 1 | 2
CN(C)CCNC(=O)c1csc2c1CCCC2 | 4 | 2
C[C@H](NC(=O)C1CC=CCC1C(=O)N1CCc2c([nH]c3ccccc23)C1)[C@H](O)c1ccccc1 (some centres not stated) | -7 | -8
COc1ccc(CNC(=O)Nc2ccc(C)cc2Cl)cn1 | 0 | 0
O=C(NCc1cccnc1)c1ccccc1N1CCC(NC(=O)C2CCC2)CC1 | 18 | 21
O=C1OC(/C=C\c2cccc([N+](=O)[O-])c2)=NC/1=C/c1ccccc1F | 21 | 13
CCCSCC(=O)NCC1CCCN(C)C1 (configuration not stated) | 11 | 4
CC(C)CCNC(=O)c1cc(=O)c(OCc2ccccc2)cn1C | 3 | 2
COc1cc2c(cc1CNC(=O)c1cnc(C3CC3)nc1C)OCCO2 | -2 | -3
O=C(c1cccc(Cl)c1)N1CCc2nc(-c3ccccc3)nc(N3CCCCC3)c2C1 | -4 | 4
COc1cc(O)c(C)c(O)c1 | -4 | -8
COc1ccc(C2c3cccn3CCCN2Cc2ccco2)c(OC)c1OC (configuration not stated) | -6 | 3
CC1(C(=O)NS(=O)(=O)c2ccccc2C(F)(F)F)CCN1C(=O)CCc1cccs1 (configuration not stated) | 2 | 1
O=C(Nc1ccc(Br)cc1)C1Cc2ccccc2CN1C(=O)OCc1ccccc1 (configuration not stated) | 2 | 0
Cc1ccc(Oc2ncccc2CNC(=O)CC(C)n2cccn2)cn1 (configuration not stated) | -3 | -3
COc1ccc(NC(=O)COC(C)C)cc1NC(=O)c1ccccc1 | 18 | 13

Quoted from the listing:
Value for CCCSCC(=O)NCC1CCCN(C)C1 (configuration not stated) in NPYLR7 agonist: 11
Value for COc1cc2c(cc1CNC(=O)c1cnc(C3CC3)nc1C)OCCO2 in NPYLR7 agonist max-min: -3

Next section
SMILES | NPYLR7 agonist | NPYLR7 agonist max-min
CCc1ccc(C(=O)N2CCN(Cc3ccsc3C(=O)OC)CC2)cc1 | 2 | 2
Cc1cc(C(=O)CSc2nnc(C)n2C2CC2)c(C)n1C1CC1 | 1 | 9
Cc1cccc(CCNc2nncc(-c3ccc4ccccc4c3)n2)n1 | 0 | -3
O=C(NCc1cccc(C(F)(F)F)c1)c1ccc(CSc2nnc(Cc3ccccc3)n2-c2ccccc2F)cc1 | -14 | -15
COCCn1cnnc1C(C)NC1CCSCC1 (configuration not stated) | 7 | 5
CN(Cc1ccccc1N1CCCCC1)C(=O)Nc1cccnc1 | 0 | 0
O=C(CN(c1cccc([N+](=O)[O-])c1)S(=O)(=O)c1ccccc1)NCc1ccccc1 | 1 | -2
CC(C(=O)NCc1cn2c(n1)SCC2)N1C(=O)c2cccc3cccc1c23 (configuration not stated) | 0 | -4
COc1cccc(F)c1OCc1nc(CC2CC2)no1 | 19 | 11
S=c1oc(-c2ccncc2)nn1CN(Cc1cccnc1)C1CC1 | 0 | -2

Already shown: an excerpt of the list.
SMILES | NPYLR7 agonist | NPYLR7 agonist max-min
CCc1ccc(C(=O)N2CCN(Cc3ccsc3C(=O)OC)CC2)cc1 | 2 | 2
Cc1cc(C(=O)CSc2nnc(C)n2C2CC2)c(C)n1C1CC1 | 1 | 9
Cc1cccc(CCNc2nncc(-c3ccc4ccccc4c3)n2)n1 | 0 | -3
O=C(NCc1cccc(C(F)(F)F)c1)c1ccc(CSc2nnc(Cc3ccccc3)n2-c2ccccc2F)cc1 | -14 | -15
COCCn1cnnc1C(C)NC1CCSCC1 (configuration not stated) | 7 | 5
CN(Cc1ccccc1N1CCCCC1)C(=O)Nc1cccnc1 | 0 | 0

(more compounds)
SMILES | NPYLR7 agonist | NPYLR7 agonist max-min
CCOC(=O)C1C(=O)C=C(c2cccs2)CC1c1ccc(OC)cc1 (configuration not stated) | 7 | 10
Cc1noc(-c2ccco2)c1C(=O)NCCCN(C)c1ccccc1 | -4 | 8
Cn1c(SCC(=O)N2CCN(c3ccccc3)CC2)nnc1C(F)(F)F | -3 | -4
O=c1cc(-c2ccoc2)oc2ccc(Cl)cc12 | 22 | 14
Cc1cccc(COn2cccc(C(=O)Nc3cc(Cl)ccc3Cl)c2=O)c1 | 3 | 15
COCCOC(=NCCN1CCCCC1)NC(=O)c1ccc(OC)cc1 | -6 | -6
CC(C)(C)NC(=O)CSc1nnc(-c2cccnc2)n1Cc1ccco1 | 8 | 0
Nc1nc2cc3c(cc2s1)OCCO3 | 2&9 | 10&6
COc1cc(-c2ccc3nnc(-c4cccc(Cl)c4)n3c2)ccc1O | 2 | -4
C=CCNc1nc(OC)nc(N(CCC)CCC)n1 | -5 | -4
CCN1CCCC1CNCc1cn(-c2ccccc2)nc1-c1cccnc1 (configuration not stated) | 8 | 7
Cc1[nH]n(-c2cccc(Cl)c2)c(=O)c1C1=C(N2CCOCC2)C(=O)N(c2ccccc2F)C1=O | 0&4 | 4&7
CCOc1ccc(-c2cc(C(=O)NCc3cc(F)cc(C(F)(F)F)c3)c3ccccc3n2)cc1 | 26 | 22
CC(C)c1cc(CNCC(=O)NCc2ccccc2F)no1 | -5 | -6
CC1CCC(CCC(=O)Nc2sccc2C(=O)NC2CC2)O1 (configuration not stated) | 7 | 6
Cc1noc(C)c1CC(=O)N1CCCC(Nc2ccccc2)C1 (configuration not stated) | -7 | -10
CC1(C)NC(=O)N(CCSc2nc3ccccc3c(=O)n2-c2ccc(C#N)cc2)C1=O | -3 | -4
C=CCCC(O)CN(CC=C)CC1CC(c2ccccc2)=NO1 (configuration not stated) | 0 | 0
Cc1[nH]nc2c1C(c1cc([N+](=O)[O-])cs1)C(C#N)C(=N)O2 (configuration not stated) | 3 | -2
COC(=O)C1=C(C)N(C)C(=S)NC1c1ccc(O)cc1 (configuration not stated) | 8 | 12
N#Cc1cccc(CN2CCN3C(C(=O)NCCCc4ccccc4)=COC3=NC2=O)c1 | 0 | -1
Cc1csc(C2CCN(S(=O)(=O)c3ccc(F)cc3Cl)CC2)n1 | -1 | -6
CCCc1cnc(C)nc1N1[C@@H]2CC[C@H]1CN(C)C(=O)C2 | -1 | -3
CCc1nnc(NC(=O)CSc2c(CC(C)C)cnc3c2c(=O)n(C)c(=O)n3C)s1 | 4 | 5
O=C(Cn1nc(-c2cc(F)ccc2F)c2ccccc2c1=O)NCC(F)(F)F | 2 | 0
CC(C)(C)C(=O)Nc1cccc(NC(=O)CC23CC4CC(CC(O)(C4)C2)C3)c1 | 7 | 6
CCOCC1(CNS(=O)(=O)NCc2ccccc2)CCC1 | 0 | 0
CC(OC(=O)c1cccc(C(F)(F)F)c1)C(=O)Nc1cccc(Cl)c1 (configuration not stated) | 1 | -2
CC(=O)Oc1c(-c2ccc(NC(=O)C3CC3)cc2)c(C(C)C)nn1-c1cccc(F)c1 | 19 | 23
Oc1oc(-c2ccc(Cl)cc2)nc1C=Nc1ccc(Cl)cn1 | -1 | -1
CCCCC(=O)N(C)c1c(C)nc2ccc(C(=O)NCCN3CCOCC3)cn12 | 5 | -5
Cc1ccc(NC(=O)CSc2nnc(CCn3ccc(=O)[nH]c3=O)o2)cc1 | -3 | -3
O=C(NCc1cccc(CN2CCOCC2)c1)NC1CCSc2ccccc21 (configuration not stated) | 3 | -6
CCc1ccc(OC(C)C(=O)NNC(=O)c2ccc(C)c([N+](=O)[O-])c2)cc1 (configuration not stated) | -12 | -15
COC(=O)c1ccc(NS(=O)(=O)c2cc(OC)ccc2OC)cc1 | 0 | 7
Cc1cccn2c(NC(C)(C)CC(C)(C)C)c(-c3cccc(OC(=O)c4cccc(Cl)c4)c3)nc12 | 9 | 10
O=C(CCc1nnc(CCC2CCCCC2)o1)NCCc1cccnc1 | 19 | 16
O=C(NCC[C@@H]1C[C@@H]2C=C[C@H]1C2)c1cccc(-n2cnnc2)c1 | -3 | -3
CCCCSc1nnc2c(n1)OC(c1ccc(N(CCC)CCC)cc1)Nc1ccccc1-2 (configuration not stated) | 4 | -5
CC(C)(CN=Cc1c(O)[nH]c(=S)[nH]c1=O)N1CCOCC1 | 11 | 6

Whole records, looked up by structure. Order of values: NPYLR7 agonist, NPYLR7 agonist max-min
Listed for CCCCSc1nnc2c(n1)OC(c1ccc(N(CCC)CCC)cc1)Nc1ccccc1-2 (configuration not stated) : 4, -5
Listed for O=C(CCc1nnc(CCC2CCCCC2)o1)NCCc1cccnc1 : 19, 16
Listed for COC(=O)c1ccc(NS(=O)(=O)c2cc(OC)ccc2OC)cc1 : 0, 7

New compounds follow
SMILES | NPYLR7 agonist | NPYLR7 agonist max-min
Cc1nccn1-c1ccc(F)cc1CNC(=O)CCN1CCCC1=O | 11 | 8
Cc1cc(C)cc(-n2c(C)cc(/C=C3\C(=O)NC(=S)N(c4cccc(Cl)c4)C3=O)c2C)c1 | 30 | 10
CC1(C(=O)Nc2ccccc2Br)CCN1C(=O)CC1CC1 (configuration not stated) | 2 | 0
COCc1cc(C)nc(N/N=C\c2ccc(-c3ccc([N+](=O)[O-])cc3Cl)o2)c1C#N | -2 | 4
Fc1ccc(-n2cccn2)c(CN2CCCC(N3CCN(c4ccccc4)CC3)C2)c1 (configuration not stated) | -1 | 0
CCOC(=O)[C@@H]1CSC2(CCN(C(=O)c3cccc(N(C)C)c3)CC2)N1 | -1 | 20
O=C(c1ccno1)N1CCN(c2nccc(-c3cccs3)n2)CC1 | 13 | 11
CC1CCc2c(sc(NC(=O)CN3C(=O)c4ccccc4C3=O)c2-c2nc3ccccc3s2)C1 (configuration not stated) | 1 | 6
Cc1oc(-c2cccs2)nc1CN(Cc1ccccc1)CC1CC1 | 5 | 9
CSc1ccc(Cn2c(C)c(C(=O)NCc3ccc(Cl)c(Cl)c3)sc2=O)cc1 | -8 | -5
COC(=O)c1ccc(Cl)c(S(=O)(=O)NCC2CCCOC2)c1 (configuration not stated) | 11 | 8
CCNC(=O)C1(C)CCCN1Cc1cccc(C(F)(F)F)c1 (configuration not stated) | 4 | 2
CC1(C(=O)NCc2cccc(C(F)(F)F)c2)CCN1CCc1ccccc1 (configuration not stated) | 0 | -1
COc1ccccc1C(=O)N(Cc1cccc(OS(=O)(=O)c2ccc(F)cc2)c1)Cc1ccco1 | -5 | 2
O=C(NCCc1ccc(Cl)s1)c1ccc(Cl)o1 | 4 | 1
CN1CCN(C(=O)C23CC4CC(C2)CC(n2nc([N+](=O)[O-])nc2Br)(C4)C3)CC1 | 3 | 10
CN(C)c1nc(Oc2ccc(=O)n(C)n2)nc(N(C)C)n1 | 7 | 6
CCC(=O)NCCn1ccc2ccccc21 | -1 | -2
Fc1ccc(CNc2nc3c(-c4cccc(Br)c4)nnn3c3ccccc23)cc1 | -7 | -11
COc1ccc(Cl)cc1-n1ccc2c(cnc3nc(C)nn32)c1=O | -1 | 0
CC1ON=C(c2ccccc2-c2ccco2)N(C)C1=O (configuration not stated) | -1 | -3
COc1ccc(N=Nc2c(C)[nH]n(-c3nc(-c4cccc([N+](=O)[O-])c4)cs3)c2=O)cc1 | 6 | 0
CC(C)Nc1ncccc1C(=O)N1CCC(O)(Cc2ccccc2)CC1 | -5 | -9
NC(=Nc1nc(CSc2nc3ccccc3s2)cc(=O)[nH]1)Nc1ccccc1 | 6 | 6
Cc1cc(NC(=O)C(OC(=O)c2cccc(F)c2)c2ccccc2)no1 (configuration not stated) | 5 | 1
O=C(NCCN1CCCC1)C1CC(=O)N(C2CCCCCC2)C1 (configuration not stated) | 3 | -1
CCN(C(=O)CN(C)CC(=O)Nc1c(C)cc(C)cc1C)C1CCCCC1 | 4 | 3
CC(C)C(=O)N1CCCc2ccc(NC(=O)c3ccccc3C(F)(F)F)cc21 | -5 | 2
CC(c1ccccc1)N1C(=O)C(=Cc2c(NCCO)nc3ccccn3c2=O)SC1=S (configuration not stated) | 11 | 11
COc1ccc(C)cc1CN(C)C(=O)c1ccc(=O)[nH]n1 | -1 | -1
Cc1nn(CC#N)c(=O)c2c1cnn2-c1ccc(F)cc1 | 6 | 3
CCOC(=O)c1c(CNCc2ccccc2)n(-c2ccccc2)c2cc(Br)c(OC)cc12 | 8 | 13
CCCCSc1nc2c(c(=O)[nH]1)C(c1ccc(C)cc1)C(C(=O)OCC)C(C)=N2 (configuration not stated) | -5 | -8
FC(F)(F)C1(C(F)(F)F)N=C(c2ccncc2)OC(N2CCOCC2)=N1 | 2 | -1
COc1cccc(C(=O)N2CCSC23CCN(C(=O)CCl)CC3)c1 | 21 | 18
O=C(CSc1nnc(-c2ccc(Cl)cc2)n1-c1ccccc1)N/N=C\c1cccc(Cl)c1 | -6 | -10
O=C(COc1ccccc1)N(Cc1ccccn1)c1nc2c(F)cc(F)cc2s1 | -1 | -6
CNC(=O)NC(=O)CN1CCc2cc(-c3csc(C)n3)ccc21 | 2 | 1
CCNC(=O)N(C)c1c(CC)nc2c(OCCC3CCCCC3)cccn12 | 0 | -2
CCc1cc(N2CCCN(C(=O)C3CC3)CC2)nc(N(C)C)n1 | -4 | -11
CC(C)N(Cc1cnn(C)c1)C(=O)COc1cccnc1 | 3 | 2
